Biofilm kill mix – mixtures killing C. albicans biofilm. C. albicans biofilm persisters + clotrimazole, fluorescence viability; primary screen in compound mixtures of four per well. inhibition, % at 7.6 µM. hit rate 0.02% among 120,000. AID 1242;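 active = inhibition above 30.3% in the primary screen of four-compound pools, then above 30% when the compound was retested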;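 note: compounds exposed to preformed 24 h biofilms for 48 h; the number belongs to the whole pool; some results filed as inactive read as strong as hits; inactives centre near 12; 0% = biofilm with clotrimazole alone and 100% = kill control; retested singly at about 60 µM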
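Probe or stimulus – Clotrimazole 50 µg/mL co-treatment · System – C. albicans biofilms · Schedule – 24 h biofilm formation, then 48 h compound exposure, 37 °C · Evaluation – percent inhibition of biofilm viability · Technique – 2-h Alamar Blue fluorescence, 535/590 nm excitation/emission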
An asterisk follows results filed as active. Some of the compounds tested; rates above refer to the full screens.

The opening 2 entries as a preview:
SMILES	Biofilm kill mix
O=C(O)C(Cc1ccccc1)N1C(=O)/C(=C/c2cccs2)SC1=S (stereo not drawn)	9
CCO[C@@H]1OC(C(=O)Nc2ccccc2)=C[C@H](C2CC2)[C@H]1CCCO	20

Main list, previewed entries included:
SMILES	Biofilm kill mix
O=C(O)C(Cc1ccccc1)N1C(=O)/C(=C/c2cccs2)SC1=S (stereo not drawn)	9
CCO[C@@H]1OC(C(=O)Nc2ccccc2)=C[C@H](C2CC2)[C@H]1CCCO	20
CC1=Nc2ccccc2N=C(NC(=O)CN2CCN(c3ccc(F)cc3)CC2)C1c1ccccc1 (stereo not drawn)	19
Cc1nc(C(=O)NC2CCOCC2)sc1C1(C)CC(c2ccccc2)=NO1 (stereo not drawn)	16
O=C(C1=C[C@@H](c2ccc3c(c2)OCO3)C[C@@H](OCCCCO)O1)N1CCOCC1	10
CCN(C(=O)COC(=O)c1c(C)noc1C)C1CCS(=O)(=O)C1 (stereo not drawn)	0
CN(C)C(=O)CSc1n[nH]c(-c2ccco2)n1	-4
C=CCNC(=O)COC(=O)c1ccc(Sc2nncn2C)c([N+](=O)[O-])c1	13
CC(C)=CCCC(C)CN1CCC(N2CCC(C(=O)N3CCOCC3)CC2)CC1 (stereo not drawn)	12
O=C(Nc1cccnc1)c1ccc(C(=O)Nc2cccnc2)cc1	14
Cc1ccccc1-c1cc2nc(-c3ccc([N+](=O)[O-])cc3)cc(=O)n2[nH]1	27
Cc1ccc(-c2nnn(CC(=O)N(c3ccccc3)C(C(=O)NCC3CCCO3)c3ccc(F)cc3)n2)o1 (stereo not drawn)	14
COc1ccccc1N1CCN(C(=O)/C=C/c2cccs2)CC1	12
CCOC(=O)Cn1c(C)[n+](C)c2cc(Cl)c(Cl)cc21	11
COc1ccc2oc(-c3ccc(NC(=O)c4ccc(N5CCOCC5)c([N+](=O)[O-])c4)cc3)nc2c1	8

6 entries from above, comma-delimited:
structure,Biofilm kill mix
O=C(C1=C[C@@H](c2ccc3c(c2)OCO3)C[C@@H](OCCCCO)O1)N1CCOCC1,10
COc1ccccc1N1CCN(C(=O)/C=C/c2cccs2)CC1,12
COc1ccc2oc(-c3ccc(NC(=O)c4ccc(N5CCOCC5)c([N+](=O)[O-])c4)cc3)nc2c1,8
O=C(Nc1cccnc1)c1ccc(C(=O)Nc2cccnc2)cc1,14
CCO[C@@H]1OC(C(=O)Nc2ccccc2)=C[C@H](C2CC2)[C@H]1CCCO,20
CC1=Nc2ccccc2N=C(NC(=O)CN2CCN(c3ccc(F)cc3)CC2)C1c1ccccc1 (stereo not drawn),19

Continuation:
SMILES	Biofilm kill mix
Cc1ccc(CC(=S)N2CCOCC2)cc1	12
CCOc1cc(OCC)cc(C(=O)NCCCN2CCOCC2)c1	19
CCOc1ccccc1C1C2=C(COC2=O)Nc2cc3c(cc21)OCO3 (stereo not drawn)	12
COc1ccc(N2CC(C(=O)Nc3nnc(SCC(=O)c4ccccc4)s3)CC2=O)cc1 (stereo not drawn)	3
COc1ccc(-c2nnc(SCC(=O)c3ccc(C)o3)o2)cc1	18
Cc1cc(C)nc(N/N=C/c2cccc(Cl)c2)n1	15
COc1ccc2cc(C3(C)NC(=O)N(CC(=O)Nc4c(C)n(C)n(-c5ccccc5)c4=O)C3=O)ccc2c1 (stereo not drawn)	0
CCc1cccc2c(C(=O)CSc3nncn3-c3ccccc3OC)c[nH]c12	9
CCCCNC(=S)N/N=C1\CCCCc2ccccc21	18
CC(=O)N/N=C/c1cc(C)n(-c2ccc(Br)cc2)c1C	14
O=C(COc1cccnc1[N+](=O)[O-])NC1CCS(=O)(=O)C1 (stereo not drawn)	8
COc1ccc(C2CC(c3cccs3)=NN2C(=O)COC(=O)c2cc3ccccc3cc2O)cc1OC (stereo not drawn)	18
COC(=O)CCCC1=CC2=C(c3ccccc3)C(=O)C(C)(OC(=O)C3CCCC3)C(=O)C2=CN1C(CO)CO (stereo not drawn)	19
CCN1CCN(C(=O)/C(C#N)=C/c2ccc(OC(F)F)cc2)CC1	14
Cc1ccc(C(=O)CSc2nnc(C(C)C)n2C)cc1C	2
O=C(CCNC(=O)Cn1ccc2ccccc2c1=O)NCCC1=CCCCC1	7
O=C(c1ccccc1)C1C(c2ccccc2)C1[N+](=O)[O-] (stereo not drawn)	10
COc1ccc(C2=NN(CC(=O)Nc3cc(C)ccc3C)C(=O)CC2)cc1	25
C#CCNC(=O)C1=C[C@@H](c2ccc3c(c2)OCO3)[C@H](CCCO)[C@@H](OCC)O1	7
CCc1cccc(CC)c1NC(=O)COC(=O)C1(C)CC1(Cl)Cl (stereo not drawn)	19
O=C(NNC1=NS(=O)(=O)c2ccccc21)c1ccccc1	18
O=C(CSc1nc2ccccc2s1)NNC(=S)Nc1ccc(Cl)cc1	6
O=C(NCc1cccnc1)c1cc(Sc2ccc(F)cc2F)nc2ccccc12	13
CC1CCc2c(sc3ncn(Cc4ccc(C(=O)O)cc4)c(=O)c23)C1 (stereo not drawn)	21
NC(=O)CC(NC(=O)Cc1cccc2ccccc12)c1ccc(NCCc2ccccc2F)c([N+](=O)[O-])c1 (stereo not drawn)	16
CCC(C)(C)NC(=O)C(c1ccccn1)N(C(=O)c1csnn1)C1CCCCC1 (stereo not drawn)	22
Nc1nnc(SCc2nc3scc(-c4ccccc4)c3c(=O)[nH]2)s1	17
COc1ccc(-c2nn(-c3ccccc3C)cc2CNCCc2cnc[nH]2)cc1F	28
CCn1cc(CN2CCc3c([nH]c4ccccc34)C2c2cccc(OC)c2OC)c(C)n1 (stereo not drawn)	2
Cc1csc(SCC(=O)NCc2ccccc2)n1	14
Cc1ccc(S(=O)(=O)N(C)Cc2ccc(C(=O)N/N=C/c3ccc(OC(F)F)cc3OC(F)F)cc2)cc1	8
CC(Sc1ccc2nnc(-c3ccc(F)cc3)n2n1)C(=O)O (stereo not drawn)	14
CC(C)c1cc(C(=O)N2CCN(C(c3ccccc3)c3ccccc3)CC2)no1	13
O=C(Nc1ccc(Br)cc1)c1cccc(S(=O)(=O)Nc2cnc3ccccc3c2)c1	9
Cc1ccc(/C=C2\C(=O)Nc3ccccc32)o1	14
O=C(CCl)c1ccc2[nH]c(=O)oc2c1	24
CCN(c1ccccc1)S(=O)(=O)c1ccc2[nH]c(=O)[nH]c2c1	28
Cc1ccc(C)c(S(=O)(=O)N2CCCOC2CNC(=O)C(=O)NCCCn2ccnc2)c1 (stereo not drawn)	15
Cc1ccsc1C(=O)N/N=C/c1ccc([N+](=O)[O-])cc1	13
CC(C)C(OC(=O)c1cccs1)C(=O)NCc1ccc2c(c1)OCO2 (stereo not drawn)	25
CCOCC(=O)Nc1ccccc1C(=O)O	29
Cc1cc(C(=O)Nc2c(C)nn(Cc3ccc(Cl)cc3)c2C)no1	13
CC1=Nc2ccccc2/C1=C/c1sc(=S)n(-c2cccc(C(=O)O)c2)c1O	-1
Cc1scc(C(=O)N/N=C/c2ccco2)c1C	6
CN(C)C(=O)N(CCCN1CCOCC1)Cc1cccc2ccccc12	16

Next part; the last 2 above are carried over.
SMILES	Biofilm kill mix
Cc1scc(C(=O)N/N=C/c2ccco2)c1C	6
CN(C)C(=O)N(CCCN1CCOCC1)Cc1cccc2ccccc12	16
CC(C)(C)NS(=O)(=O)c1ccc2nc(NC(=O)c3ccc(N4C(=O)CCC4=O)cc3)sc2c1	11
CCc1ccccc1NC1Nc2cc(C)nn2S1 (stereo not drawn)	17
O=C(N/N=C/c1cc(Br)c(Br)o1)C(O)c1ccccc1 (stereo not drawn)	12
S=C(NC1CCCCC1)N1CCc2ccccc2C1	19
CN(C)CCCNC(=O)c1ccc(/C=N/O)nc1	8
CC(C)(C)NC(=O)CCCSc1nc2ccccc2s1	12
COc1ccc2nc3cc(Cl)ccc3c(Nc3cc(C(C)C)c(O)cc3C)c2c1	19
O=c1[nH]c(CN2CCN(c3ccccc3O)CC2)nc2scc(-c3ccccc3Cl)c12	24
C=CCn1cc(C(=O)OCC)c(=O)c2cc(F)c(F)cc21	25
O=C(NCc1cccnc1)c1ccc(-c2cc(Cl)ccc2Cl)o1	-3
Fc1ccc(-c2csc(=S)[nH]2)cc1	-6
CCN(Cc1ccncc1)C(=O)CSc1ccc2ccccc2c1	16
COc1ccc(-c2cc(C#N)nc(Oc3ccc(Cl)cc3)n2)cc1	12
CCOc1ccc(NC(=O)CN(C)Cc2cc(=O)n3c(-c4ccccc4)csc3n2)cc1OCC	2
Cc1cccc(NC(=S)NC2CC3C=CC2C3)c1 (stereo not drawn)	16
O=C1OC(Cc2ccccn2)C(=O)C1=C1SCCS1 (stereo not drawn)	21
Cc1ccc(-n2c(=O)c3c4c(sc3n(Cc3cc(=O)n5ccccc5n3)c2=O)CCC4)cc1C	8
O=C(NNc1nc2c(F)cccc2s1)C1=COCCO1	11
Cc1ccccc1S(=O)(=O)Nc1nc2ccccc2nc1N1CCc2ccccc2C1	3
COc1cc(/C=N/Nc2ccc(Cl)c(C(=O)O)c2)ccc1OC(=O)c1ccco1	16
O=C(CC1SC(=Nc2ccccc2)N(CCO)C1=O)Nc1ccccc1 (stereo not drawn)	5
Fc1ccccc1-c1[nH]ncc1-c1nnnn1-c1ccccc1	22
CCC(CC)C(=O)c1c[nH]c(C(=O)NCc2ccncc2)c1	12
CN(Cc1ccccc1)C(=O)COC(=O)c1cncc(Br)c1	11
NC(=S)N/N=C\c1c(OCc2ccccc2Cl)ccc2ccccc12	14
COC(=O)C1=C(C(=O)OC)[C@@H]2N(C)c3ccccc3[C@@]23C[C@@H](C(=O)OC)N(C(C)=O)C3=N1	11
Cc1cc(/C=N/NC(=O)C(O)(c2ccccc2)c2ccccc2)c(C)n1-c1ccc(C(=O)O)cc1	24
CCCC(C)C(=O)Nc1ccc(S(=O)(=O)Nc2nccc(C)n2)cc1 (stereo not drawn)	3
Cc1nn(C(C)(C)C)c(C)c1/C=N/OC(=O)Nc1ccc(Cl)c(Cl)c1	17
COc1ccc([N+](=O)[O-])cc1NCc1ccccc1	15

Filtered by structure, those above with bromine (4)
SMILES	Biofilm kill mix
CC(=O)N/N=C/c1cc(C)n(-c2ccc(Br)cc2)c1C	14
O=C(Nc1ccc(Br)cc1)c1cccc(S(=O)(=O)Nc2cnc3ccccc3c2)c1	9
O=C(N/N=C/c1cc(Br)c(Br)o1)C(O)c1ccccc1 (stereo not drawn)	12
CN(Cc1ccccc1)C(=O)COC(=O)c1cncc(Br)c1	11

More records:
SMILES	Biofilm kill mix
NNC(=O)c1cc2nc(-c3cccs3)cc(C(F)(F)F)n2n1	16
CCN(CC)C(=S)SCC(=O)c1ccc(Br)cc1	4
Cc1nc(SCc2ccc(O)c([N+](=O)[O-])c2)c([N+](=O)[O-])[nH]1	20
COCCn1c(C)cc(/C=C2/NC(=O)N(c3cccc(Cl)c3)C2=O)c1C	8
Brc1ccccc1OCCOc1cccc2cccnc12	12
Cc1ccc2nc(SCC(=O)c3c(C)[nH]c4ccccc34)[nH]c2c1	1
CCC(CO)NC1=CC(=O)CCC1 (stereo not drawn)	15
Cc1ccc(NC(=O)COC(=O)C2CC3C=CC2C3)cc1S(=O)(=O)N1CCCCC1 (stereo not drawn)	11
Cc1nc2ccccc2c(C)c1C(=O)c1ccccc1	15
COc1ccc(CNC(=S)N2CCN(S(=O)(=O)c3cccc(F)c3)CC2)cc1	16
Cc1cc(Cl)ccc1OCC(=O)Nc1nc(-c2cccnc2)cs1	7
O=C(CSc1nc2ccccc2s1)Nc1ccc(C(=O)O)cc1	10
NC(=O)c1ccc(C(F)(F)F)n(Cc2ccc(F)c(F)c2)c1=O	15
O=C(O)COn1c(-c2ccccc2)nc2ccc(Cl)cc21	15
O=[N+]([O-])c1cccc(-c2nc3ccccc3s/c2=N/O)c1	25
Cc1cccc(NC(=S)N2CCCCC2c2cccnc2)c1C (stereo not drawn)	15
CC(=O)Nc1ccc(C(=O)OCC(=O)NC2CCCCCCC2)cc1	3
O=C(Cn1cnc2c(nnn2-c2ccc(F)cc2)c1=O)N1CCCc2ccccc21	9
COc1cccc(C(C(=O)NCC2CCCO2)N(CC2CCCO2)C(=O)CN2C(=O)c3ccccc3S2(=O)=O)c1 (stereo not drawn)	3
Cc1ccc(-c2ccc(/C=N/NC(=O)Cc3nnc(N)s3)o2)cc1Cl	8
c1cc2c(cc1-c1[nH]ncc1CN1CC3C[C@@H]4CC1C[C@H](C3)C4)OCO2	-2
COc1ccc(Oc2cc(C)nc(Cl)n2)nn1	9
COc1cc(OC)cc(C(=O)Nc2ccc(S(=O)(=O)Nc3ncccn3)cc2)c1	11
CCOC(=O)CN1C(=O)CN(c2ccc(C)cc2)C1=O	26
CCOC(=O)c1[nH]c2ccccc2c1NC(=O)NC(C)C	-3
O=C(CSc1nc2[nH]ncc2c(=O)[nH]1)c1ccccc1	2
CCOC(=O)C1CCN(S(=O)(=O)c2ccc(CC)cc2)CC1	1
O=S(=O)(c1ccc(Cl)cc1)N1c2ccccc2Oc2nc3ccccc3nc21	14
Cn1ccnc1SCC(=O)c1ccc(Cl)cc1	16
CC(=O)N1C(c2ccccc2O)C[C@]2(C)CC(=O)NC12 (stereo partly drawn)	6
Cc1nc2c(C)cccn2c1/C(O)=C1\C(=O)C(=O)N(CCN(C)C)C1c1ccco1 (stereo not drawn)	17
O=C(CSc1nnnn1Cc1ccccc1)Nc1ccccc1	20
Cn1c(/C=C(\C#N)C(N)=S)ccc1-c1ccc(Br)cc1	4
COC(=O)/C(=C/c1ccc2c(c1)c1ccccc1n2C)NC(=O)c1ccccc1	-2
COc1ccc(-n2nc(N)c(C(N)=O)n2)cc1	9
COc1ccccc1NC(=O)OCC#CCOC(=O)Nc1ccccc1OC	10
Cc1ccc(-c2nnc(-c3cc(C)on3)o2)cc1	14
O=C(NCc1ccccc1)C(c1ccc(F)cc1)N(Cc1cccs1)C(=O)c1cnccn1 (stereo not drawn)	10
